# Sfp inh – inhibitors of Bacillus subtilis Sfp phosphopantetheinyl transferase; 310,000 compounds, 3.5% hits; Potency, µM, inactives show max response, negative = inhibition, hits mostly inhibitors; AID 1490; Biochemical Sfp PPTase activity, qHTS; active = well fitted inhibition curve with a large enough effect; inconclusive = small, poorly fitted or top-dose-only effect, or another doubt; inactive = no such curve, though single readings can be large or run the other way;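 also: the enzyme is Sfp with the accession as filed and its product quenches rhodamine fluorescence; potency is read from the fitted curve at half-maximal effect; 0% = enzyme reaction without inhibitor and -100% = no enzyme wells; top concentration of the series not given in the record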
#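 With Hepes-Na pH 7.6 buffer containing 10 mM MgCl2, Sfp (15 nM) modified BHQ-2-YbbR (12.5 uM) using rhodamine-CoA (5 uM). Two reads 30 minutes apart at 525/598 nm yielded each well's rate.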
# Menin-MLL FL inh – menin-MLL binding inhibition, fluorescein peptide | Fluorescence polarization, fluorescein-MLL peptide displacement from menin | FP activity change, % at 61.4 µM | 290,000 tested, under 10 active | AID 1766; inconclusive = falling polarisation curve, or a change in total fluorescence; inactive = total fluorescence flat and polarisation flat or rising; no compound was filed as active; the % refers to the polarisation; negative = inhibition;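 also: % of control where 0% means no effect; inhibitors lower the polarisation; unlabelled MLL peptide was the positive control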
# D2 ag – activates the human D2 dopamine receptor | activation, % (no concentration beside the values) | P14416 | DiscoveRx PathHunter D2 beta-arrestin, luminescence, 90 min; 100% = 57 uM dopamine signal | 360,000 compounds, 0.084% hits; in the data active = activation above about 40%; inconclusive = about 15% to 40%; inactive = below about 15%; also: compound concentration not given in the record; the text of the record calls up to 30% inactive
# Target sequence (P14416 whole entry, looked up): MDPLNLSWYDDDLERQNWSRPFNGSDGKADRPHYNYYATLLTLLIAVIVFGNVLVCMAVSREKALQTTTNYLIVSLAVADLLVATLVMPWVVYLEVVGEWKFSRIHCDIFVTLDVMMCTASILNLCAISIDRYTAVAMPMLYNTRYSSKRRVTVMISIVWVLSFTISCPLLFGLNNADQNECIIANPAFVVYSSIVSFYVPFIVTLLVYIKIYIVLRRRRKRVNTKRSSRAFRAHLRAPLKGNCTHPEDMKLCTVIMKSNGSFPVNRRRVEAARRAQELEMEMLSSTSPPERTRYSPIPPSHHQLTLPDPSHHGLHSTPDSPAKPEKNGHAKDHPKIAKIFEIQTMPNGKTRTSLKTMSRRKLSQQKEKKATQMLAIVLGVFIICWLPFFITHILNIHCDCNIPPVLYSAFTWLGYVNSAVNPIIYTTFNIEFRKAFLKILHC
#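 DiscoveRx PathHunter D2 beta-arrestin cells (2,100/well) attached overnight, then compound-stimulated 90 min at 37 C in HBSS/10 mM HEPES/0.1% Tween-20 buffer; beta-galactosidase complementation read by luminescence after 1 h at ambient temperature. Dopamine 57 uM final (EC100) as control.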
# ClpP mod – qHTS Assay for Activators of ClpP; AID 651965, 2013; ATP-dependent Clp protease proteolytic subunit (Bacillus subtilis (strain 168)), P80244; 340,000 compounds, 1.9% hits; Potency, µM (series often up to 57.5 µM), without a hit: top-dose activity change, negative = active; purified B. subtilis ClpP, FRET peptide cleavage, 20 min; active = well fitted falling curve with a large enough effect; inconclusive = small, poorly fitted or top-dose-only effect; inactive = no such curve, though single readings can be large or run the other way; also: potency is read from the fitted curve at half-maximal effect; the source files actives as falling curves though it sought activators and does not explain the sign; nearly all actives have a fitted effect of over 65% in size; many hits overshoot -100%
# Target sequence (P80244 whole entry, looked up): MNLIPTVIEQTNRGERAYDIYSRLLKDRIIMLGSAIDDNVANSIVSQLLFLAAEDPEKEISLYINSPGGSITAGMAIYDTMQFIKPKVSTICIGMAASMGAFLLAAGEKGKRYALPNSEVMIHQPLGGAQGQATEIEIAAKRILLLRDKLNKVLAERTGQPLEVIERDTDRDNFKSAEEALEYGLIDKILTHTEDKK
#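 Purified B. subtilis ClpP, 10 microg/mL final in Tris/HCl pH8 with KCl, BSA, glycerol and Tween-20, cleaved an Abz/nitrotyrosine-quenched decapeptide. Fluorescence (ex 320, em 430) was read at 0 and 20 min at room temperature. Delta was normalized to 5.8 microM ADEP and DMSO/no-enzyme controls.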
# gsp antag – gsp mutant antagonism; gsp-mutant cells, cAMP HTRF, 30 min; control for the full effect not named in the record; Potency, µM (series often up to 76.9 µM), without a hit: at the highest dose activity change, negative = inhibition, most hits filed as inhibitors; 340,000 compounds, 0.4% hits; active = falling curve of any shape with a large fitted effect; inconclusive = falling curve, mostly with a smaller effect; inactive = flat or rising curve; cell line not stated here;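 also: intracellular cAMP measured with PDE inhibitor Ro 20-1724 present during compound exposure; potency is read from the fitted curve at half-maximal effect; % is scaled to controls: 0 for no effect and ±100 for the full control effect; nearly all actives have a fitted effect of over 65% in size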
#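 Cells in G418 medium, seeded 16-24 h, 37C; buffer exchange to DPBS + 1 mM CaCl2, 0.5 mM MgCl2, 0.05% BSA; cpds in DMSO + […] (300 uM stock), 30 min 37C; HTRF cAMP detection.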
# PINK1 modulator – modulators of PINK1 expression; Potency, µM (top dose mostly 76.6 µM), inactives show at the highest dose activation (PINK1 increase), usual class: activators; 410,000 compounds, 0.2% hits; PINK1 immunofluorescence, high-content cytometry, 24 h; AID 624263; active = well fitted activation curve with a large enough effect; inconclusive = small, poorly fitted or top-dose-only effect; inactive = flat fitted curve, though single readings scatter; cell line not stated here;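 also: potency is read from the fitted curve at half-maximal effect; % of control where 0% means no effect; nearly all actives have a fitted effect of over 65% in size; a mitochondrial uncoupler was the plate control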
#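 A stable cell line was treated with compounds at 5 concentrations for 24 hours, with CCCP as control. PINK1 levels and mitochondrial localization were measured by immunofluorescence with mitochondrial, cell and nuclear markers after fixation, read by laser-scanning cytometry.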
# gsp ag – gsp mutant agonism | gsp mutant cells, cAMP HTRF, 30 min; control for the full effect not named in the record | Potency, µM (series often up to 76.9 µM), inactives show top-dose activation (cAMP increase), most hits filed as activators | 340,000 compounds, 0.13% hits | AID 624287; active = well fitted activation curve with a large enough effect; inconclusive = small, poorly fitted or top-dose-only effect, or another doubt; inactive = no such curve, though single readings can be large or run the other way; cell line not stated here;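 also: phosphodiesterase inhibitor Ro 20-1724 added with compounds to block cAMP breakdown; potency is read from the fitted curve at half-maximal effect; nearly all actives have a fitted effect of over 60% in size; about a fifth of the inactives were tested at one dose only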
#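 Cells in DMEM/10% FBS with G418 were pretreated with compounds in DMSO plus […] (300 uM stock) for 30 min at 37C. cAMP was measured by HTRF (cAMP-d2 plus anti-cAMP antibody-K) after 30 min at room temperature.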
# Starred values were filed as active, the others as inactive; ? = inconclusive; . = not tested or not shown; & = joins results of further samples; [ ] = remark or other dose.
SMILES,Sfp inh,Menin-MLL FL inh,D2 ag,ClpP mod,gsp antag,PINK1 modulator,gsp ag
CC[n+]1c(C)n(C)c2cc(S(=O)(=O)N(C)C)ccc21,-4.1%,1.0,1.2,.,.,0.0%,-9.6%[15.4 µM]
CN1C(=O)C(O)(CC(=O)/C=C\c2ccc3c(c2)OCO3)c2ccccc21 (stereo not drawn),-14.3%,-0.9,6.5,.,3.1%,15.7%,8.2%[15.4 µM]
Cc1cc(C)nc(N/N=C/c2ccco2)n1,5.4%,-0.8,-1.0,-1.1%,-0.7%,0.2%[38.3 µM],19.7%
C(=N\N1CCN(c2ccccn2)CC1)/c1ccco1,-0.9%,2.5,-2.0,.,4.0%,1.0%,27.6%
COc1ccc(C(O)c2nc(-c3ccc(Cl)cc3)cs2)cc1 (stereo not drawn),.,.,9.2,-2.9%,.,3.3%,.
CSCCC(NS(=O)(=O)c1cccs1)C(=O)NCc1ccc(C)cc1 (stereo not drawn),2.1%,-2.7,-2.1,0.5%,6.6%,-0.7%,-16.9%[15.4 µM]
CC(OC(=O)Cc1n[nH]c(=O)c2ccccc12)C(=O)Nc1cccc([N+](=O)[O-])c1 (stereo not drawn),16.5%,-2.8,-5.1,-1.1%,-2.8%,-0.1%,-14.1%[15.4 µM]
COc1ccc(NC(=O)C2CCCCN2S(=O)(=O)c2ccc(F)cc2)c(OC)c1 (stereo not drawn),-2.2%,-6.5,1.3,-7.6%,-10.7%,-1.8%,3.9%
COc1cccc(-n2nc(-c3ccnn3-c3cccc(Cl)c3)c(=O)n(C)c2=O)c1,10.9%,4.3,-4.7,0.7%,-2.9%,1.6%,16.9%
Cc1cccc(C(=O)Nc2nnc(S(=O)(=O)N3CCC(C)CC3)s2)c1,7.7%,.,-0.6,-9.1%&-5.4%,?,1.5%&0.6%,?
COC(=O)c1ccccc1NC(=O)CNc1cc(OC)c(OC)cc1C,-8.1%,0.3,-3.2,-21.9%,-9.7%,4.2%,?
CC1CCCN(Cc2nc3c(c(=O)n(C)c(=O)n3C)n2CCc2ccccc2)C1 (stereo not drawn),7.5%,0.3,-1.7,-0.9%,-3.3%,-2.0%,7.8%
COc1ccc(CC(=O)Nc2ccc(/C(C)=N/NC(=O)c3cccc([N+](=O)[O-])c3)cc2)cc1,2.8%,-0.6,-0.4,-1.4%,-0.3%,5.7%,-34.9%[inhibitor]
CN(C(=O)CSc1nnc(Nc2ccccc2)s1)C1CCS(=O)(=O)C1 (stereo not drawn),19.2%,-0.7,-3.3,.,5.0%,0.3%,-1.8%[15.4 µM]
CC(=O)/C(=N\Nc1ccccc1Cl)Sc1nnc(-c2ccccc2)n1-c1ccccc1,-20.8%,1.5,-3.4,1.3%,-5.3%,3.5%,3.2%
CC(=O)Nc1ccc(NC=C(C#N)C#N)cc1,-9.2%,-2.5,-3.6,.,-1.0%,-0.2%,32.5%[15.4 µM]
COc1cc(CC(=O)OCC(=O)Nc2ncc(Cl)cc2Cl)cc(OC)c1OC,-0.5%,4.0,-4.7,-1.4%,6.6%[15.4 µM],0.2%,19.8%
CS(=O)(=O)c1ccc(Nc2nc(C(N)Cc3ccc(Cl)cc3)cs2)cc1 (stereo not drawn),.,.,14.3,?,.,0.9%,.
O=C(Cn1c(=O)c2c3c(sc2n(Cc2ccccc2)c1=O)CCCC3)NCCO,-6.4%,.,-2.9,.,-9.8%,2.7%,-18.8%[15.4 µM]
Cc1cc(=O)[nH]c(Nc2cccc(Cl)c2C)n1,3.8%,-0.9,-4.9,-0.2%,2.8%,0.8%,-15.2%
COC(=O)c1sc(N2CCN(Cc3ccccc3)CC2)nc1N,-0.8%,2.2,-1.2,.,-1.4%,3.3%,?
O=C(NCc1ccco1)c1ccc(NC(=O)C2COc3ccccc3O2)cc1 (stereo not drawn),-2.3%,0.0,0.9,1.7%,1.8%,-0.7%,3.8%
CCOc1cc(C(=O)N[C@@H](C)C(=O)N2CCC3(CC2)NCCc2[nH]cnc23)cc(OCC)c1OCC,-8.0%,-6.3,-3.8,-1.8%,11.5%,2.7%,-26.9%
CCCc1cc(NCCCN(C)C)n2c(nc3ccccc32)c1C#N,4.9%,4.9,-5.0,4.7%,-14.6%,0.1%,?
CN(C)CCNC(=O)/C(=C/c1ccc(-c2cccc([N+](=O)[O-])c2)o1)NC(=O)c1ccccc1,-6.7%,5.4,-1.4,0.6%,-10.4%,3.7%,25.7%

# The listing continues.
SMILES,Sfp inh,Menin-MLL FL inh,D2 ag,ClpP mod,gsp antag,PINK1 modulator,gsp ag
CC(=O)c1cccc(NC(=O)C2C3C=CC(C4CC34)C2C(=O)O)c1 (stereo not drawn),14.1µM*,1.1,-2.1,-5.6%,3.6%,-2.4%,-25.0%
Cc1noc(NS(=O)(=O)c2ccc(NC(=O)CSc3nc4c(cc3C#N)CCCCC4)cc2)c1C,-5.7%,0.3,-2.5,-0.6%,0.4%,-0.7%[38.3 µM],27.1%
COc1ccccc1N1CCN(C(=O)Oc2ccccc2)CC1,-6.7%,0.4,1.7,-0.2%,0.0%,-3.1%[38.3 µM],-29.0%
c1ccc(CCn2nnnc2CN2CCN(C3CCCC3)CC2)cc1,-5.5%,-2.7,-1.6,-0.3%,1.9%,-0.3%,-4.7%
Cc1ccccc1CNC(=O)C1CCCN(c2nnc(C)c3c(C)n(-c4ccccc4)nc23)C1 (stereo not drawn),-8.1%,-3.0,3.2,3.5%,?,1.7%,1.4%
CCCCCCOc1ccc(/C=N/NC(=O)C2CC2)cc1,9.7%,.,-4.6,0.1%,-0.4%,7.1%,?
COc1ccc(C2/C=C\CN(S(=O)(=O)c3ccc(C)cc3)[C@H](Cc3ccccc3)C(=O)N2Cc2ccc(F)cc2)cc1 (stereo partly drawn),-18.2%,15.5,-2.2,0.4%,-1.4%,1.5%,.
C[C@@H](NC(=O)c1nc[nH]c1C(=O)NCc1ccc(CNC(=O)OC(C)(C)C)cc1)c1ccccc1,.,.,2.3,0.2%,-3.3%,1.7%,.
C=CCNC(=O)/C(=C\c1ccc(OC)cc1)NC(=O)c1ccc([N+](=O)[O-])cc1,-8.1%,12.0,-5.7,.,-13.1%,1.0%,1.2%[15.4 µM]
Cc1ccccc1-n1c(SCC(=O)Nc2ccccc2Cl)nc2n[nH]c(C)c2c1=N,6.8%,3.5,11.0,-3.4%,1.9%,-0.2%,-10.6%
CCOc1ccc(OCC)c(NC(=O)C2CCN(c3nn4c(=O)cc(C)nc4s3)CC2)c1,22.1%,4.4,0.3,-19.2%,-15.0%,-1.2%,-59.3%[inhibitor]
COc1ccc(-c2oc3ncn4nc(Cc5ccccc5)nc4c3c2-c2ccc(OC)cc2)cc1,4.8%,7.8,0.6,?,10µM*,11.4%,-35.8%[inhibitor]
CC(c1ccon1)N(C)Cc1c(C(=O)N(C)Cc2ccccc2)nc2ccccn12 (stereo not drawn),13.1%,-5.2,1.4,.,-8.1%,-0.4%,-0.6%[15.4 µM]
CCOC(=O)Cc1csc(/C(=N/O)C(N)=O)n1,39.8µM*,-1.7,-1.9,-3.7%,-3.7%,24.3%[38.3 µM],-3.4%
O=C(CN1CCCCC1)Nc1nc(-c2ccccc2)cs1,10.9%,-4.0,-3.0,.,-4.1%,3.9%,-6.6%
Cc1sc(-c2c(C#N)c(N)nc3c2CCCCCC3)cc1[N+](=O)[O-],.,.,0.1,.,-2.2%,13.6%,9.5%[15.4 µM]
Cc1cc(C(=O)NN)c(Cl)cc1Cl,3.4%,-6.3,-1.2,0.3%,-4.7%,0.1%,0.4%
CCc1ccc(NC(=O)CC2C(=O)N(c3cccc(OC)c3)C(=O)N2CCOC)cc1 (stereo not drawn),9.9%,-1.6,-1.9,0.7%,6.2%,1.7%,0.1%
CCOC(=O)c1ccccc1OCc1cc(/C=N/NC(=O)c2ccncc2)ccc1OC,27.0%,-0.3,-6.2,-6.6%,-11.6%,2.2%,-4.2%[15.4 µM]
C=CCn1c(C(CC)CC)nc2ccccc21,3.8%,2.1,-1.0,.,-9.9%,0.9%,25.5%[15.4 µM]
COc1ccccc1S(=O)(=O)N(C)C[C@@H]1OCc2cnnn2CCCC(=O)N([C@@H](C)CO)C[C@H]1C,.,.,1.1,-2.2%,.,0.3%,16.5%
Cc1c(C(=O)NCC2CCCO2)sc2nc(-c3ccc(F)cc3)cn12 (stereo not drawn),2.1%,4.3,-1.3,-3.8%,?,1.8%,11.2%
CN1CCN(CCn2c(=S)[nH]c3ccccc3c2=O)CC1,-12.7%,-0.4,0.6,0.8%,6.4%,1.0%,1.5%[15.4 µM]
COc1ccc(/C=C/C(=O)Nc2cccc(S(=O)(=O)NC3=NCCCCC3)c2)cc1OC,.,.,-0.3,?,-17.2%,1.1%,12.9%
COc1ccc(CCNC(=O)CSc2nc(O)c(CCC(C)C)c(=O)[nH]2)cc1OC,17.0%,6.0,-0.9,1.0%,-11.1%,.,13.0%

# Next results:
SMILES,Sfp inh,Menin-MLL FL inh,D2 ag,ClpP mod,gsp antag,PINK1 modulator,gsp ag
O=C(NCc1cccnc1)C1c2ccccc2C(=O)N1Cc1ccccc1 (stereo not drawn),16.7%,1.6,-1.0,-2.2%,4.0%,1.6%,-1.0%
C=CCNC(=O)C(=O)NN=C1CCN(C)CC1,17.8%,-3.3,-0.2,-1.0%,0.9%,-5.2%[38.3 µM],-77.9%[inhibitor]
CCOC(=O)C1CCCN(CCSc2ccc(C)cc2)C1 (stereo not drawn),12.5%,-3.0,1.8,0.5%,-13.4%,7.7%,5.3%[15.4 µM]
C/C(=N/NC(=O)COc1cc(C)ccc1C(C)C)C(=O)O,-13.1%,-0.1,4.4,.,-1.7%,8.9%,?
CCCN(C(=O)CSCc1ccccc1C)c1c(N)n(Cc2ccccc2)c(=O)[nH]c1=O,.,.,-3.9,-0.6%,-1.9%,2.5%,-0.2%
O=C(Nc1nc(-c2cccs2)cs1)c1ccc(S(=O)(=O)N2CCCCC2)cc1,6.0%,4.9,-4.4,?,-9.8%,1.4%,-4.5%

# Screening results from PubChem.

# Rows are unselected; overall some 5.1% were active at least once.
